NPYLR7 agonist = activates Aedes aegypti NPYLR7 receptor | HEK293T NPYLR7/Galpha15, GCaMP6s calcium fluorescence | activation, % at 10 µM | actives 0.15% (n = 270,000) | AID 1259423; in the data active = activation above about 40%;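 also: 0% = vehicle and 100% = reference agonist at the receptor; some compounds past the cut are filed as inactive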
NPYLR7 agonist max-min = also measured in NPYLR7 agonist; calls as there; activation, %; measured here: Max-Min RFU normalised activation; some inactives read as strong as hits;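 span of the calcium signal over five minutes; 0% = vehicle and 100% = native peptide agonist; compound fluorescence can raise it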
* hit, by the source's call; & = joins results of further samples.

structure | NPYLR7 agonist | NPYLR7 agonist max-min
CC(C)NC(=O)N1CCCC(OCc2ccc(Br)cc2)C1 (stereo not drawn) | -4 | -2
Cc1cc(C)c2[nH]c(O)c(N=Nc3ccc([N+](=O)[O-])cc3)c2c1 | 13 | -4
COc1ccc(NCc2nsc(N(C)C)n2)cc1OC(F)F | -3 | 515
CCCCc1c(C)nc(N)nc1N1N=C1SC | 3 | 2
COc1ccccc1C(=O)N1CCN(c2cc(Oc3ccccc3Cl)ncn2)CC1C (stereo not drawn) | -8 | -7
Clc1cccc(-c2noc(CN(Cc3ccncc3)CC3CCCO3)n2)c1 (stereo not drawn) | -1 | -9
COc1ccccc1C(=O)N1CCN(c2ncccc2C(=O)NCC2CCCO2)CC1 (stereo not drawn) | 19 | 8
CCN1CCN(c2c(CN(C(=O)c3cccc([N+](=O)[O-])c3)C3CC3)c(C)nn2-c2ccccc2)CC1 | -2 | 6
Nc1c(C(=O)c2cc(F)ccc2O)cnn1-c1ccc(Cl)cc1 | -2 | -2
O=C(c1ccco1)c1cc(-c2nc3ccccc3[nH]2)c(-c2ccco2)n2c1nc1ccccc12 | 2 | 0
CC(=O)c1ccc(NS(=O)(=O)c2c(N)n(C)c(=O)n(C)c2=O)cc1 | 1 | -1
COCc1cc(C)nc(OCC(=O)N/N=C\c2cc(I)c(O)c(I)c2)c1C#N | 1 | 3
Cc1cc(=O)n2nc(NCC3(N(C)C)CCCCC3)sc2n1 | 11 | 3
CCC(C)(O)CNCc1ccc(Cl)cc1 (stereo not drawn) | -4 | -8
COC(=O)C1=C(C)N(CC2CC2)C(=O)NC1c1ccccc1C(F)(F)F (stereo not drawn) | 5 | 2
CCc1cccc2c1N(Cc1nc(CCOC)no1)CCC2 | 0 | -2
Cc1n[nH]c(=O)[nH]c1=O | -3 | -6
C=CCn1c(N2CCC(Cc3ccccc3)CC2)nc2c1c(=O)[nH]c(=O)n2C | 3 | 2
Cc1nnc(SCC(=O)N(Cc2ccccn2)CC(C)C)s1 | -3 | -9
CCOc1ccccc1N1CCN(C(=O)CCN(c2nc(Cc3cccc(OC)c3)ns2)C(C)CC)CC1 (stereo not drawn) | -4 | -8
CCn1c(C2CCNCC2)nn(CCOc2ccc(C)cc2C)c1=O | -1 | -3
C=CCNc1oc(-c2ccccc2F)nc1S(=O)(=O)c1ccc(F)cc1 | 1 | 0
CCCCn1c(=O)n(CCc2ccc(OC)c(OC)c2)c(=O)c2ncccc21 | -2 | -1
CCCC(=O)N1CCC1(C)C(=O)Nc1ccc(OC(F)F)cc1 (stereo not drawn) | -1 | -2
COC(=O)c1cc(F)ccc1Cn1ccc2ccn(C)c2c1=O | 3 | 0
Nc1nc2cc3nc(N)sc3cc2s1 | 1 | -2
CN1C(=O)CCc2cc(NS(C)(=O)=O)ccc21 | 6 | 3
COc1ccccc1C1(CNC(=O)C2CC(=O)N(c3ccc(C)c(C)c3)C2)CCOCC1 (stereo not drawn) | 1 | -2
CC(Cc1cccnc1)NC(=O)c1ccccc1OC1CCN(C(=O)c2cccnc2)CC1 (stereo not drawn) | 5 | -2
O=C(NCCc1nnc2ccc(SCC(=O)N3CCc4ccccc43)nn12)c1ccccc1 | 9 | -2

Some of the entries above, set out differently.
Results follow in this order: NPYLR7 agonist, NPYLR7 agonist max-min
> CN1C(=O)CCc2cc(NS(C)(=O)=O)ccc21
    6, 3
> Cc1cc(C)c2[nH]c(O)c(N=Nc3ccc([N+](=O)[O-])cc3)c2c1
    13, -4

(more compounds)
structure | NPYLR7 agonist | NPYLR7 agonist max-min
OCCNc1nc(N2CCOCC2)ncc1F | 12 | 4
CCOC(=O)c1c(SCc2ccc(C)cc2)nc(=O)[nH]c1C | 6 | 7
Cc1c(CN2CC[C@H](CO)[C@@H](O)C2)[nH]c2ccc(Cl)cc12 | 7 | 3
CC(NC(=O)c1ccc(Oc2ccccc2)cc1)C1CCCO1 (stereo not drawn) | 1 | -1
CCN(CC1CCCO1)C(=O)Nc1cc(OC)c(OC)cc1C (stereo not drawn) | 16 | 14
O=C1Nc2ccccc2/C1=N/N=C1/CCCC/C1=C\c1ccccc1 | 1 | 0
CC(C)CCNc1nc(N)nc2nc[nH]c12 | 4 | 3
COCCN(C(=O)NC(C)c1cnn(C)c1C)C1CC1 (stereo not drawn) | -1 | -5
Cc1nn(-c2ccccc2)c2nc(CC(C)C)nc(N3CCCN(S(=O)(=O)c4ccc(F)cc4)CC3)c12 | 0 | 4
O=C(NCC1(c2ccc3c(c2)OCCO3)CCCC1)c1ccc2ncsc2c1 | -1 | -3
COc1cc(OC)cc(C2c3cccn3CCCN2Cc2ccsc2)c1 (stereo not drawn) | 11 | 6
Cc1ccn2c(=O)c(C(=O)NC3CCCCC3C)c(O)nc2c1 (stereo not drawn) | -1 | 33
Cc1ccc2nc(-c3ccccc3C)c(NC(=O)Cc3ccccc3)n2c1 | -6 | -3
CCN(CC)C(=O)Oc1ccc2c(ccn2Cc2cc(F)ccc2C)c1-c1ccc(OC)c(OC)c1 | 11 | 2
CC(C)CCn1c(N2CCC(C)CC2)nc2c1c(=O)[nH]c(=O)n2C | 3 | 5
O=C(NCCNC(=O)[C@H]1CCCN1C(=O)CCc1ccccc1)c1ccccc1 | 1 | 16
C=CCNS(=O)(=O)c1cccs1 | 4 | 12
CNc1cc(-c2cccc(OC)c2F)ncn1 | -2 | -3
COc1cc(OC)c(CNC(C)c2ccccc2Cl)c(OC)c1 (stereo not drawn) | 11 | 6
N#Cc1ncn(CC(=O)Nc2ccc(N3CCCC3)cc2)n1 | 1 | -1
Cc1ccc(S(=O)(=O)N2CCCC2=O)c(C)c1N(C)S(C)(=O)=O | -3 | -5
CCN(CC)CCNC(=O)c1cc(NC(=O)C2CCCCC2)ccc1N1CCN(c2ccccc2OC)CC1 | 9 | 20
CC(C)CN1CCC(N2CCN(c3cc(N)nc(N)n3)CC2)CC1 | 1 | 0
Cc1nonc1C(=O)N1CCCC(CCc2ccc(F)cc2)C1 (stereo not drawn) | 4 | 1
CCc1nc2ccc(C(=O)NCCCn3ccnc3)cn2c1N(CC)CCN(C)C | -6 | -8
CCOC(=O)N1CCN(C(=O)CCN(Cc2ccco2)c2nc(Cc3cccc(OC)c3)ns2)CC1 | -13 | -16
CCc1csc(CNC(=O)c2sc(OC)nc2C)n1 | -7 | -10
COc1ccccc1-c1ccc(C(=O)N2CC(c3ccncc3)C2)cc1 | -2 | 15
COCCOC(=O)C1=C(C)NC2=C(C(=O)CC(C)(C)C2)C1c1coc2ccccc2c1=O (stereo not drawn) | -5 | -12
CC(=O)NC(Cc1ccccc1F)C(=O)N1CCN(Cc2ccc(-c3noc(-c4ccccc4)n3)cc2)CC1 (stereo not drawn) | 7 | 7
Cc1cc(F)ccc1Oc1cc(N2CCN(S(=O)(=O)c3ccccc3)C(C)C2)ncn1 (stereo not drawn) | 10 | 9
O=C1NCCN2CCN(C(=O)Nc3ccc(-c4ccccc4)cc3)CC12 (stereo not drawn) | 0 | -2
CCn1cc(CNCc2c(C(=O)N3CCCCC3)nc3c(C)cccn23)cn1 | -9 | -14
OC(CN1CCc2c(ncn2C2CC2)C1)Cn1cccn1 (stereo not drawn) | 7 | 6
Cc1cc(C)c(NC(=O)CCCS(=O)Cc2nnsc2Cl)c(C)c1 (stereo not drawn) | 10&4 | 9&9
O=C(COc1ccc(F)cc1)Oc1coc(CSc2ncccn2)cc1=O | -12 | -9
O=C1CN(C(=O)CNC2CCCc3ccccc32)c2ccccc2N1 (stereo not drawn) | -1 | -3
CCOC(=O)CN1C(=O)SC(=Cc2cc(Cl)c(OCC(=O)OC)c(OC)c2)C1=O | -1 | -2
Cc1nc(C)c(-c2ccc(SCc3ccccc3F)nn2)s1 | 1 | -3
CCCC1CCc2c(sc(NC(=O)Nc3ccccc3)c2C#N)C1 (stereo not drawn) | 5 | 7
COc1ccc(C(=O)NC2CCC(C)CC2)c(O)c1 (stereo not drawn) | -3 | -2
O=C(NCCC1CCCO1)c1[nH]c2ccc(Br)cc2c1Cl (stereo not drawn) | 9 | 6
CCN1CCCC1CN(CC1CCN(CCOC)CC1)C(=O)c1cnn(CC)c1 (stereo not drawn) | 10 | 13
O=C1C2C3C=CC(C3)C2C(=O)N1c1cc([N+](=O)[O-])ccc1F (stereo not drawn) | -7 | -12
COC(=O)NC1CCN(c2ccccc2C(=O)NC2CCCc3ccccc32)CC1 (stereo not drawn) | 11 | 22
Cc1cccn2c(=O)c3cc(C(=O)N(C)C4CCCCC4)sc3nc12 | 9 | 4
Cn1c(C2CC2)nn(CN2CCOC3CCCCC32)c1=S (stereo not drawn) | 3 | 3
COC(=O)c1ccccc1NC(=O)CSc1nnnn1C1CC1 | 0 | -3
COc1ccc(-c2cc3c(cn2)nc(NCc2ccccc2)n3C)c(C)c1 | -2 | -9
COc1ccc(-c2cnc3ncnn3c2NCCCN2CCOCC2)cc1OC | 33 | 21
CCC(C)N(Cc1c(-c2ccccc2)noc1N1CCN(C)CC1)CC(O)CN1CCOCC1 (stereo not drawn) | -6 | -1
CCn1nc(C)c(NS(=O)(=O)c2cc(C(=O)O)cc(F)c2C)c1C | -1 | 2
COc1ccc(-n2nnc(C(=O)OCc3ccccc3)c2C)cc1Cl | 5 | 1
Cn1cc(CC2CCN(C(=O)NCc3cc4ccccc4[nH]3)C2)cn1 (stereo not drawn) | 4 | 5
COc1ccc(-c2nc3ccc(C)cn3c2NC(=O)c2ccc(Cl)cc2)cc1 | -4 | 0
CSC(=S)N/N=C(/C)c1ccncn1 | -5 | -7
CCOC(=O)c1nn(-c2ccccc2C)c(=O)cc1N1CCN(Cc2ccccc2)CC1 | 7 | 2
CCOC(=O)C1(Cc2cccc(Cl)c2)CCCN(Cc2nccn2CC)C1 (stereo not drawn) | 16&0 | 7&1
CCc1nccn1CCC(=O)Nc1cc2c(C)cc(=O)oc2cc1C | 20 | 10
Cc1ccc(NC(N)=Nc2nc3c(c(=O)[nH]2)CCCC3)c(C)c1 | 8 | 8

Some of these compounds in order of number of heavy atoms, highest first:
structure | NPYLR7 agonist | NPYLR7 agonist max-min
Cc1cccn2c(=O)c3cc(C(=O)N(C)C4CCCCC4)sc3nc12 | 9 | 4
Cc1ccc(NC(N)=Nc2nc3c(c(=O)[nH]2)CCCC3)c(C)c1 | 8 | 8
O=C1C2C3C=CC(C3)C2C(=O)N1c1cc([N+](=O)[O-])ccc1F (stereo not drawn) | -7 | -12

Remaining list, next part:
structure | NPYLR7 agonist | NPYLR7 agonist max-min
Cc1ccc(CNC(=O)CSc2ccc(-c3ccc(-n4cccn4)cc3)nn2)cc1 | -3 | -6
COc1ccccc1NC(=O)C(C)N1CCCCC1 (stereo not drawn) | -7 | -7
Cn1c(O)c(N=NC(=O)C2COc3ccccc3O2)c2ccccc21 (stereo not drawn) | -5 | -5
CCOc1ccc(C2=NC(=Cc3ccccc3OC)C(=O)O2)cc1OCC | -4 | -3
COC(=O)C1=C(O)/C(=C\c2cc(OC)cc(OC)c2)SC1=Nc1ccc([N+](=O)[O-])cc1 | -5 | 3
CC(C)Oc1cccc(F)c1-c1ccc2ncnc(N3CCN(C)CC3)c2c1 | 3 | 0
N#CCSc1nc(-c2ccccc2)cc(=O)[nH]1 | -1 | -2
CC1CC1C(=O)OCC(=O)NC(=O)NC1CCCCC1 (stereo not drawn) | 6 | 11
CCCc1nc(N2CCN(C(=O)COc3ccc(Cl)cc3)CC2)c2c3c(sc2n1)CN(CC)CC3 | -1 | 3
CCOC(=O)c1cccc(NC(=O)N2CCC(Cc3ccc(OC)cc3)CC2)c1 | 2 | 11
CCOC(=O)N1CCC(NC2CCN(c3ccc(NC(=O)c4ccc5c(c4)OCO5)cc3)CC2)CC1 | 3 | -3
COc1ccc(/C=C2/C(=N)N3N=C(c4ccc(C)cc4)SC3=NC2=O)cc1 | 0 | -1
CC(=O)Nc1nnc(SCc2ccccc2Cl)s1 | 1 | 3
CC[C@@]1(O)C(=O)OCc2c1cc1n(c2=O)Cc2cc3cc(O)ccc3nc2-1 | 1&7 | -1&5
CN1C(=O)NC(c2cccc(Cl)c2Cl)C2=C1CN(CC(=O)O)C2=O (stereo not drawn) | -12 | -10
CCN(CC)C(=O)C1CCCN(C(=O)CC(C)(O)CC)C1 (stereo not drawn) | 8 | 10
O=C(O)c1cnc(N2CC[C@@H](N3CCCCCC3)[C@H](O)C2)c(Cl)c1 | 1 | 0
CSCC[C@@H](CO)n1ccnc1-c1oc2ccccc2c1C | 1 | 2
COc1ccc(-c2cc(C(=O)N3CCN(c4ccccc4F)CC3)n3nc(C(C)(C)C)cc3n2)cc1 | 13 | 16
Cc1cccc(N2CCN(C(=O)CCc3c(C)nc4nc(N)nn4c3C)CC2)c1C | -3 | -2
Cc1ccc(C)c(Cn2c(=O)c3c(nc4n(CCCl)c(C)cn34)n(C)c2=O)c1 | 4 | 3
COc1ccc(-n2c(SCc3ccc(C(=O)NCc4ccco4)cc3)nnc2-c2cccs2)cc1 | 2 | 5
CCCCCC(=O)NS(=O)(=O)c1sc(C)nc1C | -1 | 0
O=S1(=O)CCC(=NNc2nc3ccccc3[nH]2)c2cc(F)ccc21 | 4 | 11
COc1ccc(NC2CCCN(C(=O)CCCc3ccc(Cl)cc3)C2)cc1OC (stereo not drawn) | 5 | 1
CCn1nc(C)cc1C(=O)Nc1cccc(N(C)C(C)C)c1 | 8 | 4
C=CCNC(=S)NN=C1CCc2ccccc21 | -6 | -8
Cc1c(C(=O)N2CCN(c3ccccc3)C(=O)C2)cnn1-c1ncc2c(n1)-c1ccccc1CCC2 | 16 | 2
O=C(O)c1ccc(N=Nc2c(-c3ccccc3)[nH]n(-c3ccc([N+](=O)[O-])cc3)c2=O)cc1 | -3 | -8

Retrieved by structure from the entries so far, 2 records:
structure | NPYLR7 agonist | NPYLR7 agonist max-min
CCn1c(C2CCNCC2)nn(CCOc2ccc(C)cc2C)c1=O | -1 | -3
Cc1c(CN2CC[C@H](CO)[C@@H](O)C2)[nH]c2ccc(Cl)cc12 | 7 | 3

Assay outcomes as filed in PubChem BioAssay.

Not all compounds are listed. The share of hits here may be higher or lower than overall.
